Source: PubChem BioAssay
Mtb hypoxia inh – Mtb hypoxia fluorescent reporter inhibition; 300,000 tested, 0.1% active; fluorescence inhibition, % (no concentration beside the values); AID 1159583; M. tuberculosis hypoxia-regulated fluorescent reporter, fluorescence;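 active = 35 to 45% if threefold the growth effect, above 45% if 1.5-fold the growth effect; inactive = the rest, general growth blockers included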;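 also: wells of about 50 µL received 100 nL stock; 0% = vehicle wells and 100% = reference inhibitor wells; whole bacteria with a GFP reporter of the hypoxia response; strong numbers were not always called active; many hits fall short of the cut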
BJeLR lethal – BJeLR cell viability loss. 300,000 tested, 0.17% active. AID 1554. BJeLR (HRASV12) viability, CellTiter-Glo ATP luminescence, 48 h; reference of the scale not given here. inhibition, % (no concentration beside the values);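 active = replicate mean above 50%; inconclusive = above 50% but judged a plate artefact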;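 also: 50 nL library stock added to about 25 µL; numbers are from one replicate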
PrP UTR inh – inhibition of PrP 5' UTR reporter expression; cell-based PrP 5' UTR mRNA reporter, plate reader; inhibition, % (test concentration not listed); 340,000 tested, 0.35% active; AID 488862;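 active = every replicate at 50% or more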;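 also: 0 = median of the neutral control wells; tested in H4 reporter cells; numbers are from one replicate; inactives centre near -14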
ugtP null kill – growth inhibition of S. aureus ugtP deletion strain; S. aureus RN4220 ugtP deletion, OD600 growth, 16 h; some inactives read as strong as hits; growth inhibition, % (concentration not given with the values); 330,000 tested, 0.54% active;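 active = z-score under -3 and OD600 up to 0.15 on both plates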;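 also: plate controls were untreated wells for no effect and antibiotic for full effect; wells of about 80 µL received 100 nL stock; the first replicate is given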
Autofluor counter – flagged as autofluorescent in microsphere protease counterscreen. compound autofluorescence counterscreen, microsphere flow cytometry; active compounds read high. 360,000 tested, 3.1% active. AID 624483. fluorescence intensity (concentration not given with the values);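 active = at least 3 SD above the mean of all compounds, about 16000 in these data; inconclusive = too few beads counted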;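 also: 100 nL of 1 mM stock went into each well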
Sa RN4220 lethal – S. aureus RN4220 growth inhibition | inhibition, % (concentration not given with the values) | 330,000 tested, 0.33% active | OD600, 16 h;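 active = z-score of -3 or lower and OD600 up to 0.18 on both plates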;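 also: plate controls were untreated cells for no effect and reference antibiotic for full effect; stock transfer was 100 nL into about 80 µL; one replicate is shown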
Mtb hypoxia inh growth – also measured in Mtb hypoxia inh; calls as there; growth inhibition, %; measured here: M. tuberculosis growth (absorbance);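 0% = vehicle and 100% = reference antibiotic; read after six days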
Numbers without * were called inactive; ? = inconclusive; / = no result given.

Below each compound: Mtb hypoxia inh, Mtb hypoxia inh growth, BJeLR lethal, PrP UTR inh, ugtP null kill, Autofluor counter, Sa RN4220 lethal
> COCCn1c(C)cc(C(=O)COc2cccnc2[N+](=O)[O-])c1C
→ 16, 5, 5, 5, 10, 4263, 8.7
> CCc1cc(Cn2nc(-c3ccccc3)cc2C(=O)NCC2CC2)on1
→ 8, 6, -2, -13, 8, 3888, 6.8
> Cc1snnc1C(=O)NC(=S)Nc1ccccc1
→ 8, 7, 0, -29, 11, /, 4.4
> CC1NC(=O)c2cc([N+](=O)[O-])cc(I)c2NCCCCC(C(N)=O)NC(=O)C(CC(N)=O)NC1=O (centres undefined)
→ -9, 5, /, /, -1, /, 5.2
> CCC(c1nnc(SCC(=O)Nc2ccc(N3CCOCC3)cc2)n1Cc1ccccc1)N(C)C (centres undefined)
→ -2, -2, 3, -1, 12, 3956, 6.3
> Cc1cccc(NC(=O)COC(=O)c2ccc(S(=O)(=O)N3CCCCCC3)cc2)c1
→ 1, -2, /, -34, 9, 6627, 3.7
> NP(=O)(Oc1ccccc1)Oc1ccccc1
→ 7, 6, /, -23, 1, 4235, 3.8
> CC(=O)N1CCc2ccc(S(=O)(=O)N3CCc4ccccc43)cc21
→ 2, 0, 17, -15, 3, 4412, 15
> Cc1ccc(S(=O)(=O)N2CCCOC2CNC(=O)C(=O)NCc2ccco2)cc1 (centres undefined)
→ 3, 3, 4, -8, 3, 2150, 4.3
> O=C(C1CCN(Cc2nc(Cc3cccc(F)c3)no2)CC1)N1CCOCC1
→ -3, 14, 5, -23, 6, 3870, -0.6
> COc1cccc(Sc2ccccc2/C=N/NC(N)=O)c1
→ /, /, 28, 5, /, 3839, /
> CCc1cccc(CC)c1NC(=S)N1CCn2cccc2C1c1cccnc1 (centres undefined)
→ -5, -3, 7, -25, 12, 2436, 7.8
> Cc1ccc(CN2CCSc3ccc(C(=O)NCc4cccnc4)cc32)cc1
→ -10, 8, 8, -18, 2, 2531, -2.4
> NC(=O)NC(=O)CN1C(=O)NC(c2ccccc2)(c2ccccc2)C1=O
→ -12, -9, -7, -7, 7, 5564, 2.9
> O=C(CNC(=O)c1ccco1)NCC(=O)OCc1cccc(Cl)c1
→ 7, -3, -6, 19, -1, 3414, -2.8
> COc1ccccc1NC(=O)CN1C(=O)COc2ccc(S(=O)(=O)N3CCOCC3)cc21
→ 3, 5, 5, -6, -4, 5496, -0.3
> COc1ccc(S(=O)(=O)NC(C)C(=O)NCc2ccncc2)cc1OC (centres undefined)
→ 10, -6, 10, -23, 0, 3761, 2.7
> N[C@@H](CO)c1nnc([C@H](Cc2ccc(O)cc2)NC(=O)C2CCNCC2)o1
→ /, /, 1, -10, /, 3444, /
> CCOC(=O)N1CCN(C(=O)CSc2nnc(-c3ccc(C)c(C)c3)o2)CC1
→ /, /, 1, -33, 3, 5480, 1.9
> O=C(NCc1cccc(Cl)c1)c1ccc(CS(=O)Cc2ccc(Cl)cc2)o1 (centres undefined)
→ 1, 6, -1, -6, 4, 5468, 0.2
> O=C(CCC(=O)OCc1cccc([N+](=O)[O-])c1)Nc1ccc(F)cc1
→ 11, 4, -5, -16, -3, 2663, 6.5
> COCCN(C(=O)CSc1nnc(-c2ccccc2F)o1)c1c(N)n(CC(C)C)c(=O)[nH]c1=O
→ 1, 9, -2, -19, 7, 6216, 2.4
> COc1c(C)cc(C(=O)C2CCCN(C(=O)CCc3scnc3C)C2)cc1C (centres undefined)
→ 11, 4, 14, 8, -2, 4572, 4.1
> Cc1cc(C(=O)Nc2sc3c(c2C#N)CCC(C)C3)no1 (centres undefined)
→ 12, 5, /, -75, -8, 11121, 7.3
> COc1ccc(CNS(=O)(=O)c2ccc(S(=O)(=O)NC3CC3)cc2)cc1
→ 2, -1, -5, -18, -9, 4195, -3.6
> CN(CC(=O)Nc1cccc(Cl)c1)S(=O)(=O)c1ccc2[nH]c(=O)oc2c1
→ 2, 0, 8, -9, -6, 6120, 0.0
> Cc1cccc2cc(COC(=O)COc3ccccc3)c(=O)[nH]c12
→ 14, 0, 3, -11, -1, 3749, -6.4
> c1ccc(SCc2cn(CC3CCC(C4CCC(Cn5cc(CSc6ccccc6)nn5)O4)O3)nn2)cc1 (centres undefined)
→ 1, 3, /, /, -1, /, 6.1
> COc1ccc(C(=O)Oc2cc(/C=N/NS(=O)(=O)c3ccccc3)ccc2OC)cc1
→ /, /, -4, -2, /, 2721, /
> CCn1c(SCC(=O)NC(=O)NCc2ccco2)nc2sc(C)c(C)c2c1=O
→ 38*, -6.5*, 0, -3, -10, 2870, -10

A run of entries of the results above:
Below each compound: Mtb hypoxia inh, Mtb hypoxia inh growth, BJeLR lethal, PrP UTR inh, ugtP null kill, Autofluor counter, Sa RN4220 lethal
> c1ccc(SCc2cn(CC3CCC(C4CCC(Cn5cc(CSc6ccccc6)nn5)O4)O3)nn2)cc1 (centres undefined)
→ 1, 3, /, /, -1, /, 6.1
> COc1ccc(C(=O)Oc2cc(/C=N/NS(=O)(=O)c3ccccc3)ccc2OC)cc1
→ /, /, -4, -2, /, 2721, /
> CCn1c(SCC(=O)NC(=O)NCc2ccco2)nc2sc(C)c(C)c2c1=O
→ 38*, -6.5*, 0, -3, -10, 2870, -10

(cont.)
Below each compound: Mtb hypoxia inh, Mtb hypoxia inh growth, BJeLR lethal, PrP UTR inh, ugtP null kill, Autofluor counter, Sa RN4220 lethal
> CC1=NN(C(N)=S)C(=O)C1N=Nc1ccccc1Cl (centres undefined)
→ 22, 15, -5, -14, 0, 2890, 3.1
> COc1ccc(-c2cc(=O)c(C(=O)c3ccc(C)cc3)n[nH]2)cc1
→ 3, 10, 3, -1, 2, 4340, 5.4
> CC(=NOCC(=O)Nc1ccc2c(c1)OCCO2)c1ccc2c(c1)OCCO2
→ -3, 0, /, /, 4, /, -6.0
> Cc1cc(C)cc(NC(=O)COc2ccc(C(=S)N3CCOCC3)cc2)c1
→ 1, 8, -1, -17, 2, 2695, 1.9
> Cc1ccc(NS(=O)(=O)c2ccc3c(c2)OCCCO3)cc1S(=O)(=O)N1CCOCC1
→ 7, 5, /, -10, 0, 2930, 6.2
> CC(Sc1ccccc1)C(=O)NNC(=O)c1ccncc1 (centres undefined)
→ -11, -7, -5, -11, -6, ?, -5.4
> O=C(CNC(=O)c1ccccc1F)Nc1ccccc1C(F)(F)F
→ 12, 8, 12, -2, 0, 3549, 1.3
> CCN1CCN(S(=O)(=O)c2ccc(Cl)c(C(=O)NCCc3ccccc3)c2)CC1
→ 6, 10, -5, -26, 3, ?, 1.7
> Cc1ccc(-c2[nH]nc3c2C(c2cccnc2)C(C#N)=C(N)O3)cc1 (centres undefined)
→ -3, 1, -1, -9, 7, 23057*, 8.0
> CC[C@]12c3[nH]c4ccc(Cl)cc4c3CCN1C(=O)[C@@H](CC(=O)NCCCN(C)C)C[C@@H]2C(=O)N1CCN(C(=O)c2ccco2)CC1
→ 3, 5, /, 1, 3, 2977, 3.7
> CCOC(=O)C1=CN(Cc2cccc(Br)c2)S(=O)(=O)N(CC)C1C (centres undefined)
→ -5, -11, /, 18, 3, 3580, 5.3
> CCCN1C(=O)c2cc(C(=O)NCc3ccc(OC)cc3)ccc2C1O (centres undefined)
→ /, /, 1, -13, 3, 5490, -0.5
> CCCC(=O)Nc1c(-c2cccs2)c(=O)c2ccccc2n1C
→ 15, 9, -7, -23, 1, 21477*, 0.4
> Cc1c(Cc2ccccc2)c(=O)oc2cc(OCC(=O)N3CCC(C(N)=O)CC3)ccc12
→ /, /, 5, -29, -6, 5490, -2.3
> COc1cccc(N2CC(C(=O)Oc3ccc4ccccc4c3)CC2=O)c1 (centres undefined)
→ 14, 10, -8, -1, 2, 10482, 2.1
> CC(=O)NC(CC(=O)NCC(c1ccco1)N(C)C)c1ccccc1 (centres undefined)
→ -7, -6, 5, -9, 4, /, 0.9
> CCNC(=O)NC(=O)C(C)Sc1nc2cc(C(=O)OC)ccc2c(=O)n1-c1ccccc1 (centres undefined)
→ /, /, -3, -57, -2, 2757, -5.2
> O=C(Nc1cccc(-c2nnco2)c1)c1cccs1
→ 7, 11, -11, -4, 8, 3486, 5.2
> CCOC(=O)C1(CCOc2ccccc2)CCN(Cc2cnc(C)[nH]2)CC1
→ 3, 4, -3, 7, 2, 3219, 4.3
> O=C(c1ccc2c(c1)OCO2)N(CC1CCCO1)C1(C(=O)NC2CCCC2)CCCCC1 (centres undefined)
→ /, /, -5, -51, 2, /, 0.5
> CC(C)N=C1CC(C)(C)CC(=O)/C1=C(\O)CCCN1C(=O)c2ccccc2C1=O
→ 2, 5, /, /, -1, /, 4.1
> O=C(OCC(=O)N1CCc2ccccc21)c1nc(Cl)ccc1Cl
→ 13, -1, -9, -12, 9, 5700, 1.3
> Cc1cc(C(=O)OCC(=O)Nc2cc(Cl)ccc2C)c(C)o1
→ 7, 2, /, -7, 2, 5361, 2.9
> c1ccc2c(c1)nc(NCCN1CCOCC1)c1nncn12
→ 8, 6, 16, -43, 8, 5355, 4.5
> CC(O)CCC(=O)NNC1=CC(=O)CC(C)(C)C1 (centres undefined)
→ 2, -1, 4, /, 6, /, 0.4
> CCCOc1cccc(C2C(C(=O)c3ccc(C)o3)=C(O)C(=O)N2CCN2CCOCC2)c1 (centres undefined)
→ -1, 15, -5, -19, 6, 5517, 5.1
> Oc1ccc[n+](CCCCC[n+]2cccc(O)c2)c1
→ 1, -11, 2, -17, 4, 3936, 0.2
> CCOC(=O)c1cnn2c1[nH]c(=O)c1ccccc12
→ /, /, /, -8, 6, 2474, 0.4
> CCC(C)c1ccccc1NC(=O)COc1ccc(-n2cnnn2)cc1 (centres undefined)
→ 6, 3, /, -11, 12, 2849, 6.5
> O=C(Oc1ccc2ccccc2c1)c1ccccc1
→ -3, 4, 5, -27, 10, 10765, 3.7

In a second layout: 2 of the compounds above
CCCN1C(=O)c2cc(C(=O)NCc3ccc(OC)cc3)ccc2C1O (centres undefined)
  Mtb hypoxia inh = / | Mtb hypoxia inh growth = / | BJeLR lethal = 1 | PrP UTR inh = -13 | ugtP null kill = 3 | Autofluor counter = 5490 | Sa RN4220 lethal = -0.5
CC(O)CCC(=O)NNC1=CC(=O)CC(C)(C)C1 (centres undefined)
  Mtb hypoxia inh = 2 | Mtb hypoxia inh growth = -1 | BJeLR lethal = 4 | PrP UTR inh = / | ugtP null kill = 6 | Autofluor counter = / | Sa RN4220 lethal = 0.4

Following part.
Below each compound: Mtb hypoxia inh, Mtb hypoxia inh growth, BJeLR lethal, PrP UTR inh, ugtP null kill, Autofluor counter, Sa RN4220 lethal
> O=C(NCc1ccccc1F)Nc1ccc([N+](=O)[O-])cc1
→ -3, 2, -6, -13, -6, 4300, -0.7
> Nc1ccccc1OCCOc1ccccc1N
→ 8, 3, 4, -17, 3, 3755, 2.4
> COc1ccc(N2C(=O)CC(NCc3ccc(F)cc3)C2=O)cc1 (centres undefined)
→ 13, 2, -7, -5, 6, 3250, 0.1
> Cc1ccc(S(=O)(=O)C(C#N)c2nc3ccccc3nc2N2CCN(C)CC2)cc1C (centres undefined)
→ 6, -2, -6, -2, -1, ?, 6.4
> O=C(COC(=O)/C=C/c1ccc(OC(F)F)cc1)NCc1cccs1
→ 12, -3, -2, -4, 3, 2216, 4.9
> CC(=O)Nc1cccc(N(C)C)c1
→ /, /, -2, 1, 1, 3146, 2.1
> CCOC(=O)C1(C(=O)OCC)NC(=O)CC1CC (centres undefined)
→ 6, 6, /, -6, 2, 3695, 3.9
> O=C(NCCc1ccccn1)c1ccc(OC(F)F)cc1
→ 6, 6, 1, -38, -1, 4481, 2.7
> CC(=O)Nc1ccc(S(=O)(=O)NC2(C(F)(F)F)C(=O)Nc3c2c(=O)[nH]c(=O)n3Cc2ccco2)cc1 (centres undefined)
→ 12, 0, 11, -3, -1, 4444, 4.0
> COC(=O)c1ccc(NC(=O)CCNS(=O)(=O)c2cccc3nonc23)cc1
→ -3, 10, 0, -12, -15, 4271, 2.4
> COc1ccc(OCc2cccc(C(=O)Nn3cc([N+](=O)[O-])cn3)c2)cc1
→ -2, 1, 3, 30, 38, ?, 40
> O=C(N/N=C/C=C/c1ccco1)/C(=C/c1ccccc1)NC(=O)c1ccccc1
→ /, /, -8, -10, /, 7663, /
